Screening results (PubChem)
Ecoli rRNA inh – selective bacterial rRNA inhibition in E. coli | GFP signal change (wild-type ribosome), % (no concentration beside the values) | E. coli WT GFP vs humanized-ribosome RFP mutants, fluorescence, 24 h; active compounds read low; DMSO median 0, no signal -100 | 350,000 tested, 1.6% active;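 active means significant combined selectivity score with lowered wild-type GFP, culture density cut under 30%, mutant RFP and density less affected; inactive means any of these conditions unmet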; further: one replicate is shown; some compounds called inactive have numbers as strong as hits
T cruzi inh – blocks replication of Trypanosoma cruzi; 300,000 tested, 1.4% active; AID 1885; T. cruzi beta-gal in NIH3T3, luminescence, 90 h; inhibition, % (concentration not given with the values);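 active means mean inhibition across valid replicates above about 55%, limit read from the data; inconclusive means mean below that limit but half or more replicates reach it; inactive means mean below it, under half of replicates reach it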;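 further: signal also drops with host cell toxicity which is not excluded here; 0% = plate median of DMSO wells and 100% = zero luminescence signal; higher percent means less beta-gal luminescence so fewer parasites; stock transfer was 50 nL into about 50 µL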
ALR H2O2 inh – human ALR oxidase inhibition via reduced H2O2; purified ALR, DTT oxidation, H2O2 HRP-luminol luminescence; P55789; inhibition, % (concentration not given with the values); 290,000 tested, 3.8% active;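 active means mean and each replicate at 75% or more; inconclusive means only one of the two met; inactive means neither met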;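 further: stock transfer was 7.5 nL into about 7.5 µL; 0% = neutral wells and 100% = wells with inactivated enzyme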
Target sequence (P55789 whole entry, looked up): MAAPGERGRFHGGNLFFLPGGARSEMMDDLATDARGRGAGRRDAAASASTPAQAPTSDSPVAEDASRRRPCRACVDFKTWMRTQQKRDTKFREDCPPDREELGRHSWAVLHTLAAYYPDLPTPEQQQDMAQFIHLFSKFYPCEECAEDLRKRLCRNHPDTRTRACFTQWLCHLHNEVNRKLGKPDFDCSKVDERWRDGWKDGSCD
MLL AF4-AF9 inh – MLL-AF4/AF9 protein interaction inhibition; P42568; AlphaScreen, biotin-AF4 peptide binding to FLAG-AF9; inhibition, % at 10 µM; 350,000 tested, 0.47% active; AID 651704;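 active means every replicate reaching a set inhibition limit, whatever the replicate mean, cut at about 25% in these data; inconclusive means mean inhibition reaches that limit but some replicates miss it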;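 further: 0% = plate neutral control median and 100% = total signal loss; the record names both 10 and 1 µM as test concentration; the first replicate is given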
Target sequence (P42568 whole entry, looked up): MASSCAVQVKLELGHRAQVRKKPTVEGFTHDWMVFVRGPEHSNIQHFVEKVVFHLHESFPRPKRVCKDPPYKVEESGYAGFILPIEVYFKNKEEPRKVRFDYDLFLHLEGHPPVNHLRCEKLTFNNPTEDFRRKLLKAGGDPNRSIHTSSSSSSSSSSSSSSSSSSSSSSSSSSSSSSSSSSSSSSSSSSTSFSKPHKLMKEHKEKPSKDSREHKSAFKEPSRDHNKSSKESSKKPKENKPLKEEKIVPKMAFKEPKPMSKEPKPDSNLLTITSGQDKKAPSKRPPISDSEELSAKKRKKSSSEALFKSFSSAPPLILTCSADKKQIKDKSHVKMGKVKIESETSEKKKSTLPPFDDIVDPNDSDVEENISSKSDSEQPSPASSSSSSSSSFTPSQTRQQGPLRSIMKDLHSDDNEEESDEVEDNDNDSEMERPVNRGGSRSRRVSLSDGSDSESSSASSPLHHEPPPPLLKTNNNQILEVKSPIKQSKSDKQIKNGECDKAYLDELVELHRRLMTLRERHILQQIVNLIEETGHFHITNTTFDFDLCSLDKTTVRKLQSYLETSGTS
Calb FLC – C. albicans growth modulation with fluconazole; C. albicans CaCi-2 (fluconazole-resistant clinical isolate) + fluconazole, Alamar Blue growth, 48 h; growth inhibition, % (concentration not given with the values); 300,000 tested, 0.57% active;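 active means most replicates above 75%; inconclusive means exactly half above 75%; inactive means most below 75%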;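 further: all wells also contain fluconazole at 8 µg/ml as a sub-toxic cotreatment; 0% = median of DMSO wells and 100% = median of geldanamycin control wells; wells of about 8 µL received 7.5 nL stock; the first replicate is given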
FGF22 binding – FGF22 (human) thermal shift binding; Q9HCT0; recombinant FGF22 thermal shift, SYPRO orange fluorescence; percent of sucrose octasulfate shift, DMSO zero; calls only at 9.99 µM; 340,000 tested, 1.5% active;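 active means melting point raised past a set limit in the mean and every replicate; inconclusive means no clear call; three in four hits are not shown here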
Target sequence (Q9HCT0 whole entry, looked up): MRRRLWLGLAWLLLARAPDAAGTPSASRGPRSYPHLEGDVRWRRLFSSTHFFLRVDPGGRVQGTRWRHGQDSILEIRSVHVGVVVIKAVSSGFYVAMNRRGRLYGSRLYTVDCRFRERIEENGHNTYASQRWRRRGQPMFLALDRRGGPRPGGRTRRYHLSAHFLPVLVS
Beta apoptosis – beta cell apoptosis inhibition | INS-1E cytokine-induced death, ATP luminescence, 48 h; percent of positive-control rescue, neutral wells zero | protection from apoptosis, % (concentration not given with the values) | 300,000 tested, 0.8% active | AID 435005;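 active means all replicates at 75% or more, or half of them and the mean; inconclusive means half reach 75% but not the mean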;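 further: 0% = cytokine-treated negative control wells and 100% = positive control rescue; higher means more ATP so stronger rescue from cytokine killing; wells of about 40 µL received 100 nL stock; the first replicate is given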
RanGTP-Imp inh – inhibitors of RanGTP-importin-beta interaction, primary screen, biochemical, FRET, CFP-Ran, YFP-importin-beta, homogeneous; 300,000 tested, 1.1% active; inhibition, % (test concentration not listed); cell-free CFP-Ran/YFP-importin-beta FRET ratio;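 active means most replicates above 15%; inconclusive means exactly half above 15%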;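 further: 0% = DMSO wells and 100% = Ran loaded with GDP instead of GTP; wells of about 40 µL received 100 nL stock; the first replicate is given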
Ecoli rRNA inh OD600 – also measured in Ecoli rRNA inh; calls as there; OD600 change, %; measured here: OD600 growth;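 optical density of the mix in the first replicate; 0 = DMSO median and -100 = no signal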
Ecoli rRNA inh RFP – recorded beside Ecoli rRNA inh, whose call it bears; RFP signal change, %; measured here: RFP humanized mutant strains;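 first replicate; 0 = DMSO median and -100 = no signal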
An asterisk follows results filed as active; i = inactive; ? = inconclusive; nt = no result given.

item | SMILES | Ecoli rRNA inh | Ecoli rRNA inh OD600 | Ecoli rRNA inh RFP | T cruzi inh | ALR H2O2 inh
1 | CC(=O)Nc1ccc(N2CCN(C(C)=O)CC2)cc1 | 12 | 6 | 1.1 | -10 | 7
2 | O=C(O)c1cc2nc(-c3ccc(F)cc3)cc(C(F)(F)F)n2n1 | nt | nt | nt | -9 | -9
3 | Cc1ccc(F)c(C2C3C=CCC(c4cccc(-c5ccc(N(C)C)cc5)c4)C3C(=O)N2Cc2ccccc2)c1 (centres undefined) | 4 | 6 | 3.6 | 41 | nt
4 | CC1(c2ccc([N+](=O)[O-])cc2)NC(=O)N(CC(=O)Nc2ccc(N3CCCCC3)cc2)C1=O (centres undefined) | 1 | 6 | 3.5 | 14 | 25
5 | COC(=O)c1ccccc1NC(=O)CCc1ccccc1 | -2 | -2 | -9.6 | 11 | -8
6 | O=C(Cn1nc(C(F)(F)F)cc1C1CC1)NCc1ccccc1F | -1 | -1 | -1.4 | -19 | nt
7 | COC(=O)CCCC1=CC2=C(c3ccccc3)C(=O)C(C)(OC(=O)C3CCCC3)C(=O)C2=CN1Cc1ccc(OC)cc1 (centres undefined) | 5 | 9 | 8.3 | 3 | nt
8 | COc1ccccc1C(CNC(=S)NCc1ccccc1)N1CCCC1 (centres undefined) | 0 | 1 | 0.8 | -7 | 2
9 | O=c1ccc2ccc(O[C@@H]3O[C@H](CO[C@@H]4OC[C@](O)(CO)[C@H]4O)[C@@H](O)[C@H](O)[C@H]3O)cc2o1 | 5 | 12 | -4.5 | nt | 1
10 | COc1cc(C2c3c(n[nH]c3C)C(=O)N2c2ccc(C)cc2)ccc1O (centres undefined) | nt | nt | nt | -10 | 42

item | MLL AF4-AF9 inh | Calb FLC | FGF22 binding | Beta apoptosis | RanGTP-Imp inh
1 | 6.3 | 3 | i | 0 | 0.4
2 | nt | 2 | nt | -3 | -19
3 | 4.6 | -8 | i | 0 | -3.6
4 | 21 | -3 | i | 6 | -0.1
5 | -7.4 | -4 | i | -4 | -0.5
6 | -115 | -6 | i | -1 | -0.8
7 | 13 | -5 | i | -11 | -2.7
8 | 5.5 | -31 | i | nt | ?
9 | -4.0 | nt | i | -10 | nt
10 | nt | 8 | nt | 4 | 1.3

As entered above.
In MLL AF4-AF9 inh, `O=c1ccc2ccc(O[C@@H]3O[C@H](CO[C@@H]4OC[C@](O)(CO)[C@H]4O)[C@@H](O)[C@H](O)[C@H]3O)cc2o1` has the entry -4.0
In T cruzi inh, `O=C(Cn1nc(C(F)(F)F)cc1C1CC1)NCc1ccccc1F` has the entry -19
In Beta apoptosis, `COc1cc(C2c3c(n[nH]c3C)C(=O)N2c2ccc(C)cc2)ccc1O` (centres undefined) has the entry 4

Continuation:
item | SMILES | Ecoli rRNA inh | Ecoli rRNA inh OD600 | Ecoli rRNA inh RFP | T cruzi inh | ALR H2O2 inh
11 | COc1ccc(N2CCN(S(=O)(=O)c3cn(C)cn3)CC2)cc1 | 3 | 2 | 2.3 | -15 | 37
12 | O=c1[nH]nc(SCc2ccccc2)c(=O)[nH]1 | nt | nt | nt | -7 | -3
13 | O=C(Nc1ccccc1C(=O)Nc1ccc(F)cc1)c1ccco1 | 1 | -1 | 3.6 | -3 | -4
14 | CC(C)c1nc(SCC(=O)NCC2CCCO2)c2c(=O)n(C)c(=O)n(C)c2n1 (centres undefined) | 8 | 14 | -0.9 | -11 | -9
15 | COc1ccc(C(CNC(=O)CNC(=O)c2cccc(C)c2)N2CCOCC2)cc1 (centres undefined) | 2 | 6 | -3.3 | nt | -1
16 | COc1cc(-c2noc(C)c2/C=C/c2ccc(C(=O)O)cc2)cc(OC)c1OC | -24 | -6 | -11 | -14 | nt
17 | COc1cccc(C2/C(=C(\O)c3ccc4c(c3)OCCO4)C(=O)C(=O)N2CCCn2ccnc2)c1 (centres undefined) | 6 | 11 | -0.4 | -3 | 5
18 | COc1ccc(NC(=O)c2ccccc2C(=O)N2CCCCC2)cc1 | 15 | 10 | 2.2 | -9 | -1
19 | CCOC(=O)c1c(NC(=O)CCC(=O)N(CC)CC)sc2c1CC(C)(C)OC2 | 8 | 10 | 3.8 | 11 | -2
20 | CCS(=O)(=O)N1CCC(C(=O)Oc2ccc(Br)cc2)CC1 | -4 | -2 | -0.4 | -5 | -4

item | MLL AF4-AF9 inh | Calb FLC | FGF22 binding | Beta apoptosis | RanGTP-Imp inh
11 | -0.9 | -4 | i | -5 | -0.8
12 | nt | 2 | nt | -7 | -3.9
13 | 1.4 | 1 | i | -1 | -0.5
14 | -1.0 | 0 | i | 9 | -0.1
15 | -7.1 | nt | i | -6 | nt
16 | -2.7 | -11 | i | -5 | -0.6
17 | 0.2 | nt | i | -2 | 3.0
18 | -0.3 | -5 | i | -4 | -2.6
19 | -6.9 | 4 | i | -5 | 4.0
20 | -1.1 | -4 | i | -7 | 0.6

(more compounds)
item | SMILES | Ecoli rRNA inh | Ecoli rRNA inh OD600 | Ecoli rRNA inh RFP | T cruzi inh | ALR H2O2 inh
21 | O=C(N[C@@H]1C[C@H]2CC[C@@H]1C2)c1ccco1 | 17 | 10 | -3.1 | 2 | -2
22 | C/C(CC(=O)NC(C)C)=N\NC(=O)C(c1ccccc1)c1ccccc1 | -1 | -4 | -0.8 | -13 | 1
23 | Cc1c(C(Nc2ccccn2)c2ccc(Cl)cc2)c(=O)n(-c2ccccc2)n1C (centres undefined) | nt | nt | nt | -11 | -5
24 | O=C(NC1CC1)C1CCN(S(=O)(=O)c2cc([N+](=O)[O-])ccc2Cl)CC1 | 4 | 16 | -0.7 | nt | -19
25 | O=C1C2C(c3ccccc3)CC=CC2[C@H](c2ccc(C(F)(F)F)cc2)N1Cc1ccccc1 (some centres undefined) | -12 | 11 | -0.5 | 36 | -12
26 | O=C(Nc1ccc(N=Nc2ccccc2)cc1)c1ccccc1Cl | nt | nt | nt | 49 | nt
27 | O=C(COC(=O)c1cc(S(=O)(=O)N2CCc3ccccc3C2)ccc1Cl)NCc1ccco1 | nt | nt | nt | -7 | 4
28 | O=C(c1ccc(F)cc1)c1cn(Cc2ccc(F)cc2)c2cc3c(cc2c1=O)OCCO3 | 0 | 0 | 2.5 | -7 | -8
29 | O=C(CN(C(=O)c1csnn1)c1ccc(Br)cc1)NC1CCCCC1 | 3 | 10 | -2.1 | -1 | -5
30 | O=C(COC(=O)c1ccc(NS(=O)(=O)c2ccc(F)c(F)c2)cc1)NCC1CCCO1 (centres undefined) | -7 | -7 | -0.4 | -3 | -10

item | MLL AF4-AF9 inh | Calb FLC | FGF22 binding | Beta apoptosis | RanGTP-Imp inh
21 | -1.5 | -16 | i | 2 | 1.1
22 | -6.4 | 20 | i | -6 | -2.8
23 | nt | 20 | nt | -7 | 0.0
24 | 1.7 | nt | i | 5 | nt
25 | -1.7 | 23 | i | 21 | -3.8
26 | nt | -1 | nt | 3 | 0.3
27 | nt | 4 | nt | -1 | -3.3
28 | -3.3 | 2 | i | nt | -2.8
29 | -0.5 | -4 | i | -2 | -1.8
30 | 0.2 | 13 | i | -1 | 0.9

Continuation.
item | SMILES | Ecoli rRNA inh | Ecoli rRNA inh OD600 | Ecoli rRNA inh RFP | T cruzi inh | ALR H2O2 inh
31 | COc1ccc(CNC(=O)N2CCN(c3ccccc3)CC2)cc1 | 4 | 7 | -2.8 | 8 | -1
32 | CC1CCCC(C)N1C(=O)COc1ccc(C(=O)Nc2ccccc2N2CCOCC2)cc1 (centres undefined) | -5 | -5 | 1.0 | 15 | 1
33 | Cc1ccc(NNC(=O)c2ccno2)c(C)c1 | -1 | -6 | -6.2 | 9 | 99*
34 | Cc1nc(NC(C)(C)CO)c([N+](=O)[O-])cc1[N+](=O)[O-] | -3 | -9 | -1.4 | -1 | -2
35 | CCOc1ccc(S(=O)(=O)Nc2cccc(C(=O)NCC(c3ccc(OC)cc3)N3CCOCC3)c2)cc1 (centres undefined) | -3 | -14 | 6.3 | -1 | 8
36 | O=C(O)C1CCN(C(=O)CCN2C(=O)S/C(=C\c3ccccc3)C2=O)CC1 | -5 | 4 | 2.4 | -7 | 16
37 | Cc1ccc(NC(=O)c2ccc(-n3cncn3)c([N+](=O)[O-])c2)cc1F | -2 | 1 | -2.9 | 2 | nt
38 | O=C(O)C(Cc1ccccc1)NC(=O)C(c1ccccc1)c1ccccc1 (centres undefined) | nt | nt | nt | -7 | 6
39 | CCOC(=O)c1cnc(-c2ccccc2)[nH]c1=O | nt | nt | nt | -3 | -3
40 | C/C(=N\NC(=O)CCCNc1ccccc1)c1ccncc1 | 3 | -4 | -2.5 | -1 | 48

item | MLL AF4-AF9 inh | Calb FLC | FGF22 binding | Beta apoptosis | RanGTP-Imp inh
31 | 0.0 | 6 | i | 0 | 1.2
32 | 0.3 | 35 | i | 3 | -1.7
33 | -0.8 | 41 | i | -3 | 2.8
34 | -1.0 | 24 | i | 1 | -0.6
35 | 0.1 | 0 | i | 1 | 0.9
36 | -1.8 | -4 | i | -5 | ?
37 | -35 | 3 | i | -2 | -1.2
38 | 0.5 | 0 | i | nt | -3.5
39 | nt | 43 | nt | -4 | ?
40 | -4.6 | -10 | i | -6 | 7.5

Going on with the list.
item | SMILES | Ecoli rRNA inh | Ecoli rRNA inh OD600 | Ecoli rRNA inh RFP | T cruzi inh | ALR H2O2 inh
41 | c1ccc2c(c1)ccc1nnc(-c3ccc4c(c3)OCO4)n12 | nt | nt | nt | 5 | -11
42 | COc1ccc(C(CC(=O)c2ccccc2)CC(=O)c2ccccc2)cc1OC | -18 | -14 | -2.8 | 2 | -4
43 | COc1cc(C(=S)N2CCOCC2)ccc1OC(=O)c1ccccc1[N+](=O)[O-] | 6 | 3 | -0.5 | -2 | nt
44 | O=C(CCS(=O)(=O)c1ccc(Br)s1)NC1CCCCCC1 | nt | nt | nt | 4 | -1
45 | CC(C)OC(=O)c1c(NC(=O)Cn2cnc([N+](=O)[O-])n2)sc2c1CCCC2 | nt | nt | nt | 105* | -11
46 | Cc1ccc(CNC(=O)CC(C)S(=O)(=O)c2ccc3c(c2)NC(=O)C(C)S3)cc1 (centres undefined) | 9 | -10 | 4.5 | 8 | -5
47 | Cc1cccc2c1cnn2C(=O)Nc1cc(F)ccc1F | 13 | 13 | 0.1 | -1 | 0
48 | COc1ccc(Cl)cc1N(CC(=O)NC(C)(C)C)S(=O)(=O)c1ccc(C)c([N+](=O)[O-])c1 | nt | nt | nt | 36 | 0
49 | COc1ccc(CCNC(=O)CSc2nc(=O)n3cccc(C)c3n2)cc1OC | 3 | 8 | -3.4 | -4 | -14
50 | COc1cc(OC)cc(C(=O)NC(=S)Nc2nc(-c3cc4ccccc4o3)cs2)c1 | 6 | 3 | -5.2 | -3 | 1

item | MLL AF4-AF9 inh | Calb FLC | FGF22 binding | Beta apoptosis | RanGTP-Imp inh
41 | nt | -1 | nt | -2 | 0.2
42 | -1.6 | 11 | i | -3 | -5.2
43 | 15 | 1 | i | 2 | -3.9
44 | nt | -29 | nt | 0 | -0.5
45 | nt | 2 | nt | -9 | 7.6
46 | -7.8 | -6 | i | 4 | 3.4
47 | -2.0 | 2 | i | -6 | 0.9
48 | nt | 1 | nt | nt | 4.1
49 | 0.6 | -6 | i | nt | -1.9
50 | -30 | -1 | i | 4 | -3.2

Only part of the results is shown. The share of hits here may be higher or lower than overall.
